# Screens (PubChem)
# Polio RdRp inh: inhibitors of poliovirus RNA polymerase binding and polymerization; poliovirus polymerase elongation, fluorescence polarization; active compounds read low; AID 588519; hit rate 0.66% among 150,000; % elongation, % (compound at 16.7 µg/mL); in the data active means % elongation below about 90%; further: some results filed as inactive read as strong as hits
# Target sequence (P03300 1749-2209 limits assumed): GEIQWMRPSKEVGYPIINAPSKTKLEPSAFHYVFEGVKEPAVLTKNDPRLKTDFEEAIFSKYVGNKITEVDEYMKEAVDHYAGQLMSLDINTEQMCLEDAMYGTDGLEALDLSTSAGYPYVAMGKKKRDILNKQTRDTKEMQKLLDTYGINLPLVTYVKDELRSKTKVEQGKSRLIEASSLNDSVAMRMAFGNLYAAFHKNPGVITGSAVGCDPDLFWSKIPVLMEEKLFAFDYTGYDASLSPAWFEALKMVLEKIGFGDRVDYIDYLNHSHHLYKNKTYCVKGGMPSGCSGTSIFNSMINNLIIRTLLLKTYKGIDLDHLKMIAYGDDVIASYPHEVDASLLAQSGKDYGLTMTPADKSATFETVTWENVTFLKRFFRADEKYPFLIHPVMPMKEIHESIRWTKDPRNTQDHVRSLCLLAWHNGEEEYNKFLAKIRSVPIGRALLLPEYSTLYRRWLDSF
# Polio RdRp inh intensity: also measured in Polio RdRp inh; calls as there; % elongation; measured here: total intensity read-out; formula for this scale not given here;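 total fluorescence in place of polarization; lower means less elongation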
# Numbers without * were called inactive.
# Value order – Polio RdRp inh, Polio RdRp inh intensity
- Cc1cccc(CNC(=O)CCCN2C(=O)CCn3nc(-c4cccn4C)cc32)c1
    112, 116
- CCN(CC)c1cc2c(cc1F)c(=O)c(S(=O)(=O)c1cc(C)ccc1C)cn2Cc1ccccc1
    113, 115
- CCN(CC)S(=O)(=O)c1ccc2c(c1)c(=O)c(C(=O)NCc1ccccc1OC)cn2C
    107, 108
- COc1cccc(C(=O)N(Cc2cccc(F)c2)C2CCS(=O)(=O)C2)c1 (stereo not given)
    103, 108
- Cc1ccc(-n2c(Cc3ccccc3)nnc2SCc2nc(-c3cccs3)no2)cc1C
    105, 109
- COc1ccc(CCNC(=O)CCn2c(=O)c3ccccc3n(Cc3ccccc3F)c2=O)cc1OC
    103, 102
- Cc1ccc(CN(C(=O)COc2cc(C)c(Cl)c(C)c2)c2ccccn2)o1
    104, 102
- Cc1ccc(NCc2cc3cc4c(cc3n(CC(=O)Nc3ccc(C)cc3)c2=O)OCCO4)cc1
    112, 115
- Cc1ccc2c(c1)C(c1ccccc1)N(C(=O)c1ccc(OC(C)C)cc1)CC(=O)N2 (stereo not given)
    107, 109
- CCCCN(c1ccccc1)c1ncnc2c1cnn2-c1ccc(Cl)cc1
    104, 112
- CCN1CCN(CCCNC(=O)c2cnn(-c3ccc(C)cc3C)c2C2CCN(C(=O)OC(C)(C)C)CC2)CC1
    112, 103
- CCOc1ccc(NC(=O)CSc2ncn[nH]2)cc1
    106, 110
- CC(=O)N1CCc2c(sc3nc(SCC(C)C)n(-c4ccc(F)c(Cl)c4)c(=O)c23)C1
    103, 104
- Cc1c(Cl)cccc1NC(=O)N1CCN(C(=O)c2nsc3ccccc23)CC1
    108, 98
- CCOC(=O)c1c(C)[nH]c(CCC(=O)NCc2ccc(N(C)C)cc2)c1C
    103, 113
- Cc1nn(CCCC(=O)Nc2cccc(C(F)(F)F)c2)c(=O)c2nn(-c3ccccc3)c(C)c12
    103, 109
- CC1=C(c2ccc(C)c(C)c2)S(=O)(=O)N=C1N1CCN(c2cccc(C(F)(F)F)c2)CC1
    108, 110
- Cc1ccc(C)c(NC(=O)Cn2c(=O)n(CC3CCCO3)c(=O)c3ccccc32)c1 (stereo not given)
    107, 105
- COc1ccc2oc(=O)cc(CN3CCN(C(=O)c4ccccc4F)CC3)c2c1
    105, 104
- Cc1cccc(Cn2c(CN3CCC(C(=O)NCCc4ccccc4)CC3)cc3ccccc32)c1
    112, 100
- CN1C(=O)CC(C(=O)Nc2ccc(C(=O)O)cc2)SC1=Nc1ccc(Cl)cc1 (stereo not given)
    107, 109
- CC(=O)Nc1ccc(S(=O)(=O)Nc2nc3n(n2)C(c2ccccc2)C=C(c2ccc(Cl)cc2)N3)cc1 (stereo not given)
    104, 163
- Cc1cc(Br)ccc1NC(=O)CSc1c2c(nc3ccccc13)CCC2
    98, 99
- CCCc1nn2c(=O)cc(COC(=O)c3ccc(NC(=O)COc4ccccc4)cc3)nc2s1
    110, 113
- COc1ccccc1CNC(=O)CCn1nc(C)c2c(C)n(-c3ccccc3)nc2c1=O
    105, 108
- CN(C)c1ccc(CNC(=O)C2CCCN(S(=O)(=O)c3ccc4c(c3)oc(=O)n4C)C2)cc1 (stereo not given)
    108, 109
- Cc1ccc(NC(=O)CCCc2nnc3n(C)c(=O)c4sccc4n23)cc1F
    106, 107
- Cc1ccc(Cn2c(CNS(=O)(=O)c3c(C)cc(C)cc3C)nc3cccnc32)cc1
    109, 115
- CC1CCN(CCCNC(=O)CN2C(=O)CSc3ccc(S(=O)(=O)N4CCOCC4)cc32)CC1
    111, 108
- O=C1CC(c2ccc(Br)cc2)c2c(ccc3ccccc23)N1 (stereo not given)
    110, 112

# Part of the list above in order of formula weight, descending:
# Value order – Polio RdRp inh, Polio RdRp inh intensity
- CCN(CC)c1cc2c(cc1F)c(=O)c(S(=O)(=O)c1cc(C)ccc1C)cn2Cc1ccccc1
    113, 115
- CCCc1nn2c(=O)cc(COC(=O)c3ccc(NC(=O)COc4ccccc4)cc3)nc2s1
    110, 113
- Cc1cc(Br)ccc1NC(=O)CSc1c2c(nc3ccccc13)CCC2
    98, 99
- CN1C(=O)CC(C(=O)Nc2ccc(C(=O)O)cc2)SC1=Nc1ccc(Cl)cc1 (stereo not given)
    107, 109

# Following part
# Value order – Polio RdRp inh, Polio RdRp inh intensity
- CCOC(=O)c1c(NC(=O)CSc2cn(CCNC(=O)c3ccc(OC)c(OC)c3)c3ccccc23)sc2c1CCCC2
    104, 109
- Cc1ccc(CNC(=O)CSCc2ccccc2C)cc1
    105, 99
- Cc1nc(N2CCCC2)ncc1C(=O)Nc1ccccc1
    104, 101
- FC(F)(F)c1cccc(Nc2c3c(nc4ccc(Cl)cc24)CCC3)c1
    105, 108
- Cc1ccccc1CN1C(=O)C(O)(CC(=O)c2cccc(Br)c2)c2ccccc21 (stereo not given)
    109, 107
- Cc1cc2nn(-c3ccccc3)nc2cc1NC(=O)COc1ccc(Cl)cc1
    112, 114
- COc1ccc(C(=O)NCc2ccc3c(c2)CCN3C(=O)c2ccncc2)cc1
    105, 111
- Cc1ccsc1CN1CCc2nc(Nc3ccccc3)ncc2C1
    102, 107
- Cc1ccc(NC(=O)CN(C)S(=O)(=O)c2cccc3cccnc23)cc1F
    107, 110
- Cc1ccc2c(c1)N(CCC(=O)NCc1ccc(F)cc1)C(=O)CO2
    99, 102
- Cc1ccc2nc(COc3cccc(NC(=O)c4ccccc4Cl)c3)cc(=O)n2c1
    108, 120
- COc1cccc(CNC(=O)CCC(=O)N2Cc3cccc(OC)c3Oc3ncccc32)c1OC
    105, 108
- COCCn1ccc2c(OCC(=O)Nc3ccccc3F)cccc2c1=O
    107, 108
- Cc1c(C(=O)O)oc2c1-c1nn(Cc3ccc(Cl)cc3)cc1CC2
    101, 104
- Cc1nc2ccccc2c(=O)n1-c1ccc(NC(=O)C(F)(F)F)cc1
    99, 108
- Cc1ccccc1C(=O)Nc1ccc2nc(SCCOc3ccccc3)sc2c1
    107, 114
- CCOC(=O)c1cc(-c2ccc(C)cc2)nn1Cc1ccccc1
    110, 108
- CCc1cnc2c(c1SCCC(C)C)c(=O)n(C)c(=O)n2C
    102, 105
- O=C(CC1N=C2c3ccccc3N=C(SCc3ccccc3F)N2C1=O)NCc1ccc2c(c1)OCO2 (stereo not given)
    106, 97
- COc1ccc(-n2c(=O)c3sc4ccccc4c3n(CC(=O)Nc3cccc(C)c3)c2=O)cc1
    100, 105
- Cn1cc(C(=O)NCc2ccccc2Cl)c(=O)c2cc(S(=O)(=O)N3CCCCCC3)ccc21
    105, 110
- O=C(Cn1c(=O)n(Cc2ccco2)c(=O)c2ccccc21)Nc1ccc(Cl)cc1Cl
    106, 110
- CCOc1cc2sc(N3CCC(C(=O)Nc4ccc(CC)cc4)CC3)nc2cc1Br
    111, 116
- CCOc1ccc(Nc2c(S(=O)(=O)c3ccc(C)cc3)cnc3cc(OC)c(OC)cc23)cc1
    105, 106
- Cc1ccc(Cl)cc1N1CCN(S(=O)(=O)c2ccc3[nH]c4c(c3c2)CCCC4)CC1
    115, 112
- CCn1c(=O)c2sccc2n2c(CCCC(=O)N3CCN(c4cc(Cl)ccc4C)CC3)nnc12
    116, 121
- COc1ccc(-c2noc(CN(C(=O)c3ccc(C)cc3C)C(C)C)n2)cc1
    105, 106
- COc1ccccc1N1CCN(C(=O)c2cc3c(=O)n(C)c4ccccc4c3s2)CC1
    101, 102
- CCN(c1ncnc2c1cnn2-c1ccc(C)cc1)C1CCCCC1
    108, 108
- CC(=O)c1cccc(NC(=O)Cn2cc(C(=O)c3cccc(Cl)c3)c(=O)c3ccc(C)nc32)c1
    109, 113

# Grouped by structure, the entries above with a furan ring, fused or not (three)
# Value order – Polio RdRp inh, Polio RdRp inh intensity
- Cc1ccc(CN(C(=O)COc2cc(C)c(Cl)c(C)c2)c2ccccn2)o1
    104, 102
- Cc1c(C(=O)O)oc2c1-c1nn(Cc3ccc(Cl)cc3)cc1CC2
    101, 104
- O=C(Cn1c(=O)n(Cc2ccco2)c(=O)c2ccccc21)Nc1ccc(Cl)cc1Cl
    106, 110

# New compounds follow.
# Value order – Polio RdRp inh, Polio RdRp inh intensity
- CCOc1ccc(N2C(=O)N(Cc3c(F)cccc3Cl)c3ccccc3S2(=O)=O)cc1
    108, 104
- CCOC(=O)c1c(C)oc2nc(C)nc(NCc3ccccc3OCC)c12
    96, 92
- CCc1c(C)nc2nncn2c1Nc1cccc(C)c1
    114, 106
- CCOC(=O)c1ccc(N2CCN(c3cccc(OC)c3)CC2)c(NC(=O)Nc2ccc(OCC)cc2)c1
    108, 109
- Cc1ccc(-n2nc3ccc(NC(=O)c4oc5ccc(C)cc5c4C)cc3n2)cc1
    102, 106
- COc1ccccc1NC(=O)c1ccccc1NC(=O)c1ccccc1
    104, 106
- Cc1ccc(-c2cc(C(F)(F)F)n3ncc(-c4ccc(Cl)cc4)c3n2)cc1
    104, 106
- Cc1ccc(OCCSc2nc3ccc(NC(=O)c4cccs4)cc3s2)cc1
    102, 111
- CCCCN(CCCC)CCNC(=O)Cn1nc(CC)n2c(cc3sc(C)cc32)c1=O
    104, 107
- Cn1cnc2c(=O)oc3ccc(S(=O)(=O)N4CCN(c5ccccc5)CC4)cc3c21
    105, 108
- CC(C)(C)C1CCc2c(sc(NC(=O)c3cccc(Cl)c3)c2C(=O)NCc2ccco2)C1 (stereo not given)
    101, 97
- O=C(CCCn1ncn2c(cc3occc32)c1=O)NCc1ccccc1F
    108, 110
- Cc1ccc(NC(=O)c2cc3cc(C)ccc3n2C)cc1
    104, 105
- COc1ccc(-n2nc(C(=O)Nc3ccccn3)c3c4ccccc4n(C)c3c2=O)cc1
    110, 110
- CCn1c(=O)cc(SCC(=O)NCc2ccc(Cl)cc2)c2ccccc21
    96, 99
- Cc1ccc2cc3cc(C(=O)N4CCN(c5ccc(Cl)cc5)CC4)oc3nc2c1
    115, 115
- CC1CCN(S(=O)(=O)c2ccc3c(c2)N(CC(=O)NCCN(C)C)C(=O)CO3)CC1
    107, 103
- COc1ccc(C(=O)NC(c2ccc(Cl)cc2)c2cc(Cl)c3cccnc3c2O)cc1 (stereo not given)
    86, 210
- Cc1c(Cl)cccc1NC(=O)Cn1nc(C(F)(F)F)c2c1CCC2
    103, 110
- CCN(CC)CCCNC(=O)CN1N=C(c2ccccc2)CCC1=O
    105, 105
- O=C(CSc1nc(=O)n(Cc2cccnc2)c2c1CCC2)Nc1ccc(F)cc1F
    108, 108
- CC(C)(C)C1CCc2c(sc3nc(-c4cc5ccccc5oc4=O)[nH]c(=O)c23)C1 (stereo not given)
    118, 126
- CCOc1cc(C#N)c(NC(=O)Cn2nnc(-c3ccc(C)cc3)n2)cc1OCC
    103, 104
- Cc1c(-c2cccc(NC(=O)C(C)(C)C)c2)nc2ncccn12
    107, 113
- Cc1ccc(C2c3[nH]c4ccccc4c3CCN2C(=O)c2cccc(C)c2)cc1 (stereo not given)
    114, 98
- COc1ccc(NC(=O)Cn2c(=O)n(Cc3ccc(C(=O)NCc4ccccc4Cl)cc3)c(=O)c3ccccc32)cc1
    107, 108
- CCCSCCCNC(=O)CN1C(=O)COc2ccc(S(=O)(=O)N3CCC(C)CC3)cc21
    101, 100
- COc1ccc(C(=O)NCCc2nc3ccccc3[nH]2)cc1
    103, 107
- O=C(Nc1cccc(F)c1)c1ccc2oc(=O)n(Cc3ccccc3)c2c1
    100, 108
- O=C(NCc1cccs1)c1ccc2c(c1)sc1nc(-c3ccc(F)cc3)cn12
    106, 111
- COc1cn(CC(=O)Nc2cc(C)cc(C)c2)c(CN2CCCCC2)cc1=O
    107, 108
- O=C1c2ccccc2-c2onc3c(NCCO)cc(NC4CCCCC4)c1c23
    155, 213
- Cc1nc(N2CCCC2)c2c(C(=O)N3CCN(c4cccc(C)c4C)CC3)c(C)oc2n1
    105, 113
- COC(=O)c1ccc(NC(=O)CSc2cn(CC(=O)N3CCCCCC3)c3ccccc23)cc1
    114, 111
- O=C(NCc1ccccc1Cl)c1ccc2c(O)c(S(=O)(=O)c3ccccc3)c(=O)[nH]c2c1
    104, 111
- COc1ccc2nc(NC(=O)c3nc(S(=O)(=O)Cc4ccccc4)ncc3Cl)sc2c1
    110, 107
- O=S(=O)(c1ccccc1)c1nnn2c1nc(NCc1ccccc1)c1sccc12
    102, 107
- Cc1sc2ncn(CC(=O)N3CCN(c4ccccc4)CC3)c(=O)c2c1S(=O)(=O)N1CCC(C)CC1
    103, 103
- COc1cc(/C=C/c2nc(C#N)c(N3CCC(C)CC3)o2)cc(OC)c1OC
    107, 109
- COc1cc(-c2nnc(SCC(=O)Oc3ccc(C)cc3C)o2)cc(OC)c1OC
    111, 116
- COCCNC(=O)c1ccc(NC(=O)N2CCCCc3ccccc32)cc1
    104, 105
- CCCN(CCC)C(=O)c1c[nH]c2ccc(S(=O)(=O)N(C)c3ccc(OCC)cc3)cc2c1=O
    105, 106
- CCCN(c1ccccc1CC)S(=O)(=O)c1ccc2c(c1)CC(C)N2C(=O)C1CC1 (stereo not given)
    101, 107
- Cc1ccc(-n2nc(C(=O)N3CCN(c4cc(Cl)ccc4C)CC3)c(=O)n(C)c2=O)cc1
    108, 102
- COc1ccc2c(c1)c1c(c(=O)n(CCc3ccccc3)c(=O)n1Cc1cccc(F)c1)n2C
    113, 110
- COC(=O)c1ccc2c(c1)N(Cc1ccc(Cl)cc1)C(=O)c1ccccc1S2
    109, 115
- CCOc1ccc(CCNC(=O)c2c(C)oc3ncn(CC(C)C)c(=O)c23)cc1
    113, 114
- Cn1c(=O)n(C)c2cc(NS(=O)(=O)c3ccccc3)c(NCc3ccccc3)cc21
    103, 106
- O=C(C1CCCN(S(=O)(=O)c2ccc(Br)s2)C1)N1CCN(c2ccccc2F)CC1 (stereo not given)
    112, 110
- Cc1ccc(S(=O)(=O)Nc2ccc3c(c2)CCCN3C(=O)c2cccs2)cc1C
    107, 113
- CCOc1ccc(-c2nnc(SCC(=O)c3ccc(Br)cc3)n2-c2ccccc2)cc1
    100, 101
- CCOC(=O)N1CCc2c(sc3c2C(=O)NC(c2ccc(N(C)C)cc2)N3)C1 (stereo not given)
    112, 117
- COc1ccccc1C(=O)Nc1nnc(SCc2cc(=O)c3cc(Cl)ccc3[nH]2)s1
    103, 108
- Cc1cccc(NC(=O)Cn2c(=O)ccc3cc(S(=O)(=O)N4CCCC4)ccc32)c1C
    111, 114
- COCCn1c(C)cc(O)c(C(c2ccccc2)N2CCN(c3ccccc3)CC2)c1=O (stereo not given)
    85*, 69*

# Some of the compounds tested. The share of hits here may be higher or lower than overall.
